# High-throughput results deposited in PubChem by Broad Institute.
# DUX4 txn inh = inhibitors of DUX4-driven ZSCAN4 reporter expression, primary screen, 293T cells, Gaussia and Italica luciferase | 293T-iDUX4 ZSCAN4-Gaussia luciferase reporter, 24 h; hits give low values | activity change, negative = inhibition, % (test concentration not listed) | 37,000 compounds, 0.8% hits;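 active = -10% or lower and over 25 points stronger than a control reporter; inconclusive = -10% or lower with a smaller gap; inactive = above -10%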;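 also: 0% = median of neutral control wells and -100% = median of positive control wells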
# DUX4 txn inh difference = further read-out of DUX4 txn inh, marked with its call; Gaussia minus Italica difference, %; measured here: selective DUX4 reporter inhibition;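 worked out from the two reporters; negative = selective loss of the DUX4 reporter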
# DUX4 txn inh control = also measured in DUX4 txn inh; calls as there; activity change, negative = inhibition, %; measured here: Italica tet-on control reporter;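 0 = neutral control and -100 = positive control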
# * = called active by the depositor; ? = inconclusive; nt = not tested or not shown; & = joins results of further samples. The list is partial; rates above refer to the full screens.
SMILES,DUX4 txn inh,DUX4 txn inh difference,DUX4 txn inh control
CN(C)C(=O)C[C@H]1CC[C@H]2[C@@H](COC[C@@H](O)CN2Cc2nccs2)O1,5.7,10.4,-4.8
COc1ccc(C#Cc2ccc3c(c2)[C@H]2[C@H](CCN2C(=O)C2CCOCC2)[C@H](CO)N3)cc1,8.4,4.9,3.6
N#C[C@H]1[C@@H](c2ccccc2C2=CCCC2)[C@H](CO)N1C(=O)c1cccc(F)c1,5.7,2.8,2.9
Cc1noc(C)c1S(=O)(=O)N(C)C[C@@H]1OCCCC[C@@H](C)Oc2ccc(NS(=O)(=O)c3cccs3)cc2C(=O)N([C@@H](C)CO)C[C@H]1C,-2.4,-2.4,0.0
O=C(C[C@H]1C[C@H]2c3cc(NS(=O)(=O)c4ccccc4)ccc3O[C@H]2[C@@H](CO)O1)NCC(F)(F)F,6.0,7.8,-1.8
COCC#Cc1ccc([C@@H]2[C@H]3CN(S(=O)(=O)c4ccc(OC)cc4)CCCCN3[C@H]2CO)cc1,-0.4,-24.8,24.4
O=C(C[C@@H]1CC[C@@H]2[C@H](COC[C@H](O)CN2C(=O)c2ccccc2)O1)NCCCN1CCOCC1,2.7,3.6,-1.0
Cc1cccc(S(=O)(=O)N2CC[C@@H]3[C@H]2c2cc(-c4ccccc4F)ccc2N[C@@H]3CO)c1,9.8,10.2,-0.4
CC(=O)N1[C@@H](CO)[C@@H](c2ccccc2)[C@@H]1CN(C)C(=O)c1ccccc1F,1.9,-0.2,2.1
CO[C@@H]1CC[C@H]2CCN(C)C(=O)[C@H](C)[C@H](OC)CN(C)C(=O)c3cccc(C#N)c3OC[C@@H]1O2,0.5,-2.9,3.4
CN(C)C(=O)C[C@H]1CC[C@H]2[C@@H](COC[C@H](O)CN2CC2CCCCC2)O1,12.3,3.8,8.5
N#C[C@@H]1[C@@H](c2ccccc2C2=CCCC2)[C@H](CO)N1C(=O)C1CCC1,?,nt,nt
COc1ccc2c3c([nH]c2c1)[C@@H](CO)N(C(=O)Cc1ccccc1)CC31CN(C)C1,6.8,-10.4,17.2
O=C(C[C@H]1CC[C@@H]2[C@H](COC[C@@H](O)CN2S(=O)(=O)c2ccccc2F)O1)NCc1ccccc1Cl,10.8,7.8,3.0
COc1ccccc1-c1ccc2n(c1=O)C[C@@H]1[C@@H](CO)[C@H](C(=O)NCc3ccccc3F)N[C@H]21,-2.9,-2.2,-0.8
CCCNC[C@@H]1[C@@H](c2ccc(C3=CCCCC3)cc2)[C@@H](CO)N1C(=O)C1CCC1,-2.4,0.7,-3.1
CO[C@@H]1CN(C)C(=O)c2ccc(NC(=O)c3ccc4c(c3)OCO4)cc2OC[C@@H](C)N(Cc2ccc3c(c2)OCO3)C[C@H]1C,?,nt,nt
COc1ccccc1CN1CC[C@@H]2[C@H](CO)Nc3ccc(C#Cc4ccccc4)cc3[C@@H]21,-8.3,-18.4,10.1
COCC(=O)N1[C@@H](C#N)[C@@H](c2ccc(C3=CCCC3)cc2)[C@@H]1CO,0.0,-2.7,2.6
Cc1ccccc1S(=O)(=O)N1CC[C@@H]2[C@@H](CO)Nc3ccc(-c4ccc(C#N)cc4)cc3[C@@H]21,?,nt,nt
CC=Cc1ccc2n(c1=O)C[C@H]1[C@H](CO)[C@@H](C(=O)NCC(F)(F)F)[C@@H]2N1C(=O)C1CC1 (mixture of isomers),-3.7,-8.5,4.8
CC(C)[C@@H]1C(=O)N[C@@H](c2cccc(Cl)c2)CC=CC[C@@H](C)Oc2ccccc2C(=O)N1C (mixture of isomers),-3.4,-1.9,-1.5
CCC(=O)N1[C@H](CO)[C@H]2c3ccccc3N(C(=O)c3ccc4c(c3)OCO4)C[C@H]21,1.0,-4.8,5.8
CO[C@H]1CN(C)C(=O)c2cc(NS(=O)(=O)CC(F)(F)F)ccc2OC[C@@H](C)N(C)C[C@H]1C,4.4,0.5,4.0
N#C[C@@H]1[C@@H](c2ccc(C3=CCCCC3)cc2)[C@@H](CO)N1C(=O)c1cccc(F)c1,3.6,14.0,-10.4

# Reprinted from the part before: 3 compounds, then new ones.
SMILES,DUX4 txn inh,DUX4 txn inh difference,DUX4 txn inh control
CCC(=O)N1[C@H](CO)[C@H]2c3ccccc3N(C(=O)c3ccc4c(c3)OCO4)C[C@H]21,1.0,-4.8,5.8
CO[C@H]1CN(C)C(=O)c2cc(NS(=O)(=O)CC(F)(F)F)ccc2OC[C@@H](C)N(C)C[C@H]1C,4.4,0.5,4.0
N#C[C@@H]1[C@@H](c2ccc(C3=CCCCC3)cc2)[C@@H](CO)N1C(=O)c1cccc(F)c1,3.6,14.0,-10.4
CC(C)CC#Cc1cnc2c(c1)C(=O)N([C@@H](C)CO)C[C@@H](C)[C@H](CN(C)C(=O)CC1CC1)O2,1.1,-0.4,1.6
C[C@H]1CN([C@@H](C)CO)C(=O)CCCn2cc(nn2)CO[C@H]1CN(C)Cc1cccnc1,-4.0,-7.3,3.2
C[C@H](NC(=O)[C@H]1[C@H](CO)[C@H]2Cn3c(ccc(/C=C/c4ccccc4)c3=O)[C@@H]1N2)c1ccccc1,4.6,6.1,-1.5
CS(=O)(=O)N1[C@@H](C#N)[C@@H](c2ccc(C#CC3CCCCC3)cc2)[C@@H]1CO,0.2,0.5,-0.2
COc1ccc(NC(=O)Nc2cccc3c2O[C@@H](CN(C)Cc2ccc(C(=O)O)cc2)[C@H](C)CN([C@@H](C)CO)C3=O)cc1,0.5,-0.8,1.3
CCC(=O)N1CCCCN2[C@H](CO)[C@H](c3ccc(-c4ccc(F)cc4)cc3)[C@H]2C1,0.8,5.4,-4.6
CC(C)(O)C#Cc1ccc([C@H]2[C@H]3CN(C(=O)c4ccncc4)CCCCN3[C@H]2CO)cc1,27.1,22.9,4.2
Cc1ccc(S(=O)(=O)Nc2cccc3c2O[C@@H](CN(C)Cc2ccncc2)[C@@H](C)CN([C@@H](C)CO)C3=O)cc1,-0.5,-3.5,3.0
N#C[C@H]1[C@@H](c2ccc(C#CC3CC3)cc2)[C@H](CO)N1S(=O)(=O)c1ccccc1,1.6,-0.1,1.7
C[C@@H]1CCCCO[C@H](CN(C)C(=O)Cc2ccccc2)[C@H](C)CN([C@@H](C)CO)C(=O)c2cc(NC(=O)CCCN(C)C)ccc2O1,0.0,-3.5,3.5
CO[C@H]1CN(C)C(=O)c2ccc(NS(=O)(=O)c3ccccc3C)cc2OC[C@H](C)NC[C@H]1C,1.1,-4.0,5.1
CCCNC(=O)N1CC2(CCN(S(=O)(=O)c3ccccc3)CC2)c2c(n(C)c3cc(OC)ccc23)[C@H]1CO,-9.3,-5.0,-4.3
Cc1noc(C)c1S(=O)(=O)Nc1ccc2c(c1)C(=O)N([C@@H](C)CO)C[C@H](C)[C@H](CN(C)C(=O)c1ccncc1)OCCCC[C@@H](C)O2,-0.8,-2.1,1.3
C[C@H]1CN([C@@H](C)CO)C(=O)c2ccccc2-c2ccccc2CO[C@@H]1CN(C)C(=O)Nc1cccc(C(F)(F)F)c1,?,nt,nt
Cc1noc(C)c1NC(=O)N(C)C[C@H]1Oc2ccc(NC(=O)Cc3cn(C)c4ccccc34)cc2CC(=O)N([C@@H](C)CO)C[C@@H]1C,4.2,3.4,0.8
Cc1cc(C(=O)Nc2cccc3c2O[C@@H](CN(C)C)[C@@H](C)CN([C@@H](C)CO)C3=O)n(C)n1,0.9,0.9,0.0
COCC(=O)N1[C@H](CO)[C@@H](c2ccccc2-c2cccc(OC)c2)[C@@H]1C#N,2.9,7.3,-4.4
CCC(=O)N1[C@H](C(=O)NCc2ccc(F)cc2)[C@@H](CO)[C@@H]2Cn3c(ccc(C4=CCCC4)c3=O)[C@@H]21,-1.0,-1.3,0.3
COc1cccc(S(=O)(=O)N(C)C[C@H]2Oc3cc(C4=CCCCC4)ccc3S(=O)(=O)N([C@H](C)CO)C[C@@H]2C)c1,0.2,-0.8,1.0
Cn1cnc(S(=O)(=O)N2C[C@@H](O)COC[C@H]3O[C@@H](CC(=O)N4CCN(c5ccccc5)CC4)CC[C@@H]32)c1,8.8,14.3,-5.5
O=C(NCC[C@@H]1CC[C@@H](NS(=O)(=O)c2cccc(Cl)c2)[C@@H](CO)O1)c1cnccn1,4.8,5.6,-0.8
C/C=C/c1ccc(C2[C@H]3CNC[C@@H]2N3Cc2ccc3c(c2)OCO3)cc1 (stereo not given in full),8.5&15.3,0.0&16.5,8.5&-1.3
CCS(=O)(=O)Nc1ccc2c(c1)C(=O)N(C)[C@H]1CC[C@@H](CC(=O)NCCCN3CCOCC3)O[C@H]1CO2,-1.3,-0.7,-0.6
CC(=O)N1[C@H](CO)[C@@H]2c3ccccc3N(S(=O)(=O)c3cccc(C)c3)C[C@@H]21,0.9,1.7,-0.7
C/C=C/c1ccc([C@@H]2[C@H]3CN(CCC(F)(F)F)CCCCN3[C@H]2CO)cc1,5.0,1.7,3.3
# Later entries.
SMILES,DUX4 txn inh,DUX4 txn inh difference,DUX4 txn inh control
O=S(=O)(c1cccs1)N1CCCCN2[C@H](CO)[C@H](c3ccc(C4=CCCC4)cc3)[C@@H]2C1,?,nt,nt
Cc1ccc(S(=O)(=O)N(C)C[C@H]2OCCCC[C@H](C)Oc3ccc(NC(=O)C4CCCCC4)cc3C(=O)N([C@@H](C)CO)C[C@@H]2C)cc1,-2.6,0.6,-3.3
CN(C)C(=O)c1cccc(-c2ccc3n(c2=O)C[C@H]2[C@H](CO)[C@@H](C(=O)NCC(F)(F)F)[C@@H]3N2C)c1,1.9,-0.3,2.2
CCCNC(=O)N1C[C@@H](O)COC[C@@H]2O[C@@H](CC(=O)O)CC[C@H]21,5.2,2.7,2.5
C[C@@H]1CN([C@@H](C)CO)C(=O)c2cc(-c3cccc(C(=O)N(C)C)c3)cnc2O[C@@H]1CN(C)S(=O)(=O)c1cccc(F)c1,0.7,4.3,-3.6
COC(=O)C[C@@H]1CC[C@H]2[C@H](COc3ccc(NC(=O)Nc4c(C)noc4C)cc3C(=O)N2C)O1,9.9,25.1,-15.2
O=C(C[C@@H]1C[C@H]2c3cc(NS(=O)(=O)c4ccc(F)cc4)ccc3O[C@H]2[C@@H](CO)O1)NCCN1CCCCC1,0.4,1.2,-0.8
CCNC(=O)C[C@H]1CC[C@@H]2[C@H](COc3ccc(NC(=O)c4ccc5c(c4)OCO5)cc3C(=O)N2C)O1,3.9,1.6,2.3
CN(C)c1ccc2c(c1)[C@H]1C[C@@H](CC(=O)NCc3cccc(F)c3)O[C@@H](CO)[C@H]1O2,8.8,9.4,-0.7
C[C@H](NC(=O)C[C@H]1CC[C@H]2[C@@H](COC[C@@H](O)CN2C(=O)Nc2cc(Cl)cc(Cl)c2)O1)c1ccccc1,?,nt,nt
C[C@H]1CC=CC[C@H](c2cccc(Cl)c2)NC(=O)[C@H](Cc2ccccc2)N(C)C(=O)c2ccccc2O1 (mixture of isomers),-2.4,-3.0,0.5
COc1ccc(NC(=O)N(C)C[C@@H]2Oc3c(NC(=O)c4ccncc4)cccc3C(=O)N([C@H](C)CO)C[C@H]2C)cc1,-4.9,-4.0,-0.9
O=C([C@H]1[C@H](CO)[C@H]2Cn3c(ccc(-c4cccnc4)c3=O)[C@@H]1N2Cc1ccncc1)N1CCOCC1,0.7,-2.6,3.3
CCc1nc(N2[C@H](CO)[C@H](c3ccccc3-c3ccccc3F)[C@@H]2C#N)sc1C,6.3,-5.6,11.9
C[C@H](C(=O)N(C)C[C@H]1OCc2ccccc2-c2ccccc2C(=O)N([C@H](C)CO)C[C@@H]1C)c1ccccc1,0.7,4.9,-4.2
Cc1cccc(S(=O)(=O)N2C[C@H](O)COC[C@@H]3O[C@@H](CC(=O)Nc4ccccc4)CC[C@H]32)c1,-4.5,1.8,-6.3
CC(C)NC(=O)N1[C@H](CO)[C@@H]2c3ccccc3N(C(=O)C3CC3)C[C@@H]21,-1.8,0.7,-2.5
CN1CCCCN2[C@H](C1)[C@H](c1ccc(Br)cc1)[C@@H]2CO,18.1,13.4,4.7
C[C@H](NC(=O)C[C@@H]1C[C@H]2c3cc(NC(=O)Nc4ccc(C(F)(F)F)cc4)ccc3O[C@H]2[C@@H](CO)O1)c1ccccc1,0.8,3.2,-2.4
C[C@@H]1CN([C@@H](C)CO)C(=O)c2cccc(NS(C)(=O)=O)c2O[C@H]1CN(C)Cc1ccc(-c2ccccc2)cc1,0.2,-0.6,0.8
CC(C)(C)[S@](=O)N1Cc2cc(C(=O)N3CCCCC3)nc(-c3cccc(-c4cccc(C#N)c4)c3)c2[C@@H]1CCO,3.3,2.8,0.5
COc1ccc2c3c([nH]c2c1)[C@@H](CO)N(C)CC31CCN(C(=O)Nc2c(C)noc2C)CC1,11.3,11.2,0.1
C[C@H](CO)N1C[C@H](C)[C@H](CN(C)Cc2ccc(C(=O)O)cc2)OCCCC[C@H](C)Oc2ccc(NC(=O)NC3CCCCC3)cc2C1=O,3.9,-5.5,9.4
O=C(C[C@@H]1C[C@H]2c3cc(NC(=O)c4ccc5c(c4)OCO5)ccc3O[C@H]2[C@@H](CO)O1)NCc1ccc(Cl)cc1,?,nt,nt
CO[C@H]1CN(C)C(=O)c2cc(NC(=O)C3CCOCC3)ccc2OC[C@@H](C)NC[C@@H]1C,11.8,11.5,0.3

# Entries above that have two or more sulfur atoms:
SMILES,DUX4 txn inh,DUX4 txn inh difference,DUX4 txn inh control
Cc1noc(C)c1S(=O)(=O)N(C)C[C@@H]1OCCCC[C@@H](C)Oc2ccc(NS(=O)(=O)c3cccs3)cc2C(=O)N([C@@H](C)CO)C[C@H]1C,-2.4,-2.4,0.0
COc1cccc(S(=O)(=O)N(C)C[C@H]2Oc3cc(C4=CCCCC4)ccc3S(=O)(=O)N([C@H](C)CO)C[C@@H]2C)c1,0.2,-0.8,1.0
O=S(=O)(c1cccs1)N1CCCCN2[C@H](CO)[C@H](c3ccc(C4=CCCC4)cc3)[C@@H]2C1,?,nt,nt
